Mtb growth: Mycobacterium tuberculosis H37Rv growth inhibition, cell based, confirmatory dose response (AID 1949). most inactive calls were filed without a number and no value below 0 was filed. inhibition, % at 10 µg/mL, or IC50 in µg/mL where a hit was titrated. 100,000 compounds, 1.6% hits;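 active means confirmed in a dose series; inconclusive means about 50% or more but not retested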;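 further: bacteria grown 7 days with compound before Alamar blue readout; 0% = untreated bacteria and 100% = reference antibiotic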
Starred values were filed as active, the others as inactive; i = inactive; ? = inconclusive. These rows are one share of the data, so the mix of outcomes need not match the whole.

SMILES	Mtb growth
CCC(C)c1ccc(NS(=O)(=O)Cc2ccccc2)cc1 (stereo not given)	i
CCCC(=O)N(c1ccc2oc(C)c(C(=O)OC)c2c1)S(=O)(=O)c1ccc(OC)cc1	i
CCn1ncc(CN2CCN(C(=S)Nc3ccc(Br)cc3Cl)CC2)c1C	i
O=c1oc2c3c(ccc2c2c1CCC2)OCN(c1ccc(Cl)cc1)C3	i
Cc1ccc(OC(C)c2nnc(N)s2)cc1Cl (stereo not given)	i
O=C(c1ccccc1SCc1ccccc1)N1CCCCC1	i
CC(C)C(=O)Nc1cccc(NC(=S)NC(=O)COc2ccc(C(C)(C)C)cc2)c1	i
Clc1ccc(Cc2noc(CN3CCN(c4ccccc4)CC3)n2)c(Cl)c1	9.2%
Cc1ccc(C(=O)Nc2ccc(Br)c(C)n2)cc1Cl	4.5%
O=C(NCC1(c2ccccc2)CCCC1)C(=O)Nc1nncs1	12.8%
Cc1ccc(C(=O)Nc2ccc(Br)cc2)o1	i
COc1cc(C2NC(=O)NC(C)=C2C(=O)OC2CCCC2)cc(OC)c1OC (stereo not given)	i
Cc1cc(OCC(=O)O/N=C(\N)Cc2ccc([N+](=O)[O-])cc2)cc(C)c1Br	i
Cc1ccc(OCC(=O)NCCN(C)C)c(Br)c1	i
COc1ccccc1NC(=O)CNS(=O)(=O)c1ccccc1	1.1%
COC(=O)c1c(-c2ccc(Cl)cc2)csc1NC(=O)c1ccc([N+](=O)[O-])cc1	i
CCCOc1ccc(N2C(=O)CC(NCc3ccc(OC)c(OC)c3)C2=O)cc1 (stereo not given)	i
CCN(CC)C(=O)COc1nc2c(C(F)(F)F)c3c(nc2o1)CCC3	i
O=C(Nc1ccc(Nc2ccccc2)cc1)c1ccccc1F	0.0%
CCOc1ccccc1N(CC(=O)NCc1ccco1)S(=O)(=O)c1ccc(SC)cc1	i
Cc1ccc(N(Cc2ccc(C(=O)Nc3ccc(F)c(Cl)c3)cc2)S(C)(=O)=O)cc1C	i
COc1ccc(OC)c(/C=C2\C(=O)NC(=O)N(c3ccccc3C)C2=O)c1	i
O=S(=O)(Nc1cc(Sc2ncn[nH]2)c(O)c2ccccc12)c1cccs1	25.0%
CC(C)CN1C(=O)c2ccc(NC(=O)Cc3ccccc3)cc2C1=O	i
Cn1c(=O)oc2cc(S(=O)(=O)N3CCCCC3)ccc21	1.6%
Cc1ccccc1OCc1nnc(SCC(=O)NC(c2ccccc2)c2ccccc2)n1C	i
Cc1ccc(NC(=O)CC2CCCCC2)cc1Cl	1.9%
CS(=O)(=O)N1CCC(C(=O)Nc2cccc3ccccc23)CC1	i
CCc1nnc2sc(-c3ccc(N)cc3)nn12	i
CCOC(=O)c1c(NC(=S)NCc2ccccn2)sc2c1CCCCC2	i
N#Cc1ccc(C(=O)NC(=S)Nc2ccc(-c3nc4ccccc4s3)c(O)c2)c(F)c1	0.6%
COc1ccc(-c2csc(NC(=S)NC(=O)c3cccs3)n2)cc1	2.4%
O=C(O)C1(NS(=O)(=O)c2ccc(F)c(Cl)c2)CCCCC1	i
COc1ccc(-c2cc(-c3ccccc3)c(C#N)c(S(C)=O)n2)cc1 (stereo not given)	?
Cc1cc(Cl)ccc1N(CC(=O)Nc1ccccc1C(=O)NC(C)c1ccccc1)S(C)(=O)=O (stereo not given)	i
CN(C)C(C)(C)C#CCCCCC#CC(C)(C)N(C)C	i
Cc1nc(/N=C(/N)NC(=O)c2ccccc2)nc2ccccc12	i
COc1ccc(CNc2cccc(C)n2)cc1	i
O=C(NCCSCc1c(F)cccc1Cl)c1cccc([N+](=O)[O-])c1	i
N#CCCn1cc(C(=O)N2CCOCC2)c(-c2cccs2)n1	i
CCOC(=O)C1CCN(C(=O)Nc2ccccc2)CC1	0.7%
CCn1c(SCC(=O)Nc2ccc3c(c2)OCO3)nnc1-c1ccccc1	4.1%
Cc1oc2cc3oc(=O)c4ccccc4c3cc2c1C	i
O=S(=O)(c1ccccc1)c1nc(-c2cccs2)oc1N1CCOCC1	i
CCc1c(C)sc(NC(=O)c2ccco2)c1C(=O)N1CCCCC1	i
O=C(Cc1cccc2ccccc12)Nc1ccc(N2CCCCC2)cc1	i
Cc1cc(C)c2ccc(C)[n+]([O-])c2c1O	i
CCOC(=O)c1ccc(NC(=O)CN(c2cc(Cl)ccc2Cl)S(C)(=O)=O)cc1	11.1%
O=C(c1cc2c(=O)n3ccccc3nc2s1)N1CCc2ccccc21	4.7%
O=C(c1ccccc1)c1ccc(CN2C(=O)c3ccccc3C2=O)o1	i
Cc1ccccc1OC(C)C(=O)O/N=C(\N)c1cccnc1 (stereo not given)	i
Cn1c(=O)n(CC(=O)N2CCCCC2)c2ccccc21	i
COc1ccccc1N1CCN(C2CCN(C(=O)c3cccc(F)c3)CC2)CC1	2.2%
Fc1cccc(CN2CCN(C3CCN(Cc4ccccc4)CC3)CC2)c1	i
Cc1cc2sc(NC(=O)c3ccc(Br)o3)nc2cc1Cl	0.4%
O=C(Nc1ccc(Br)cc1F)c1ccc(NS(=O)(=O)c2cccc(Cl)c2)cc1	1.5%
Cc1ccc(-c2csc(Nc3ccc(C(=O)O)c(O)c3)n2)cc1	1.46µg/mL*
CCOC(=O)c1c(N)sc(C(=O)N(C)Cc2ccccc2)c1C	0.6%
Cn1c(-c2ccc(C(=O)c3ccccc3)o2)nc2ccccc21	1.7%
COc1cc(Br)cc2cc(C(=O)Nc3ccc(O)cc3)c(=O)oc12	i

6 successive entries from above, quoted:
SMILES	Mtb growth
Cc1cc2sc(NC(=O)c3ccc(Br)o3)nc2cc1Cl	0.4%
O=C(Nc1ccc(Br)cc1F)c1ccc(NS(=O)(=O)c2cccc(Cl)c2)cc1	1.5%
Cc1ccc(-c2csc(Nc3ccc(C(=O)O)c(O)c3)n2)cc1	1.46µg/mL*
CCOC(=O)c1c(N)sc(C(=O)N(C)Cc2ccccc2)c1C	0.6%
Cn1c(-c2ccc(C(=O)c3ccccc3)o2)nc2ccccc21	1.7%
COc1cc(Br)cc2cc(C(=O)Nc3ccc(O)cc3)c(=O)oc12	i

Following part.
SMILES	Mtb growth
Cc1ccc(C(=O)Nc2ccc(S(=O)(=O)N3CCc4ccccc43)cc2)cc1Br	46.2%
CCOc1ccccc1N1CCN(C(=O)C2CCN(Cc3ccccc3O)CC2)CC1	i
Cc1ccc(S(=O)(=O)N(CC(=O)O)c2ccc(Cl)c(C(F)(F)F)c2)cc1	i
Cc1c(OCC(=O)c2ccc3c(c2)OCO3)ccc2c1oc(=O)c1ccccc12	i
Cc1ccc(C(C)C)c(OCC(=O)Nc2ncc(I)cc2C)c1	?
CCc1ccccc1N(CC(=O)Nc1cc(C)cc(C)c1)S(C)(=O)=O	1.1%
COc1ccc2c(c1)c(=O)oc1c(C)c(OCC(=O)Nc3c(C)cccc3C)ccc12	i
CCOC(=O)c1c(NC(=O)CCn2cnc3ccccc3c2=O)sc2c1CCCC2	1.9%
Cc1cc(NC(=O)c2sc3nc4c(cc3c2N)CCCCCC4)no1	3.0%
C#CCOc1c(Cl)cc(/C=C/[N+](=O)[O-])cc1Cl	i
CCCN(C(=O)c1ccccc1O)c1c(C)n(C)n(-c2ccccc2)c1=O	i
C=CCn1cc(Cc2cn(CC=C)nc2C)c(C)n1	4.7%
Clc1ccc(CNCc2ccc3c(c2)OCO3)cc1	i
CCOC(=O)C1CCN(Cc2nc3ccccc3c(=O)n2-c2ccc(F)cc2)CC1	i
CCC1(CCc2ccncc2)C(=O)NC(=O)NC1=O	1.4%
Cc1ccc(C(=O)N2CCC(C(=O)Nc3ccc(Cl)c(Cl)c3)CC2)cc1	5.8%
O=C(Nc1cccc(Cl)c1)Nc1ccccc1C1CC1	38.0%
CS(=O)(=O)N(CC(=O)Nc1cccc(F)c1)c1cccc(Cl)c1	1.5%
O=C(Nc1cc(Cl)c(O)c(Cl)c1)c1ccc(Br)cc1	5.3%
Cc1cccc(NC(=S)Nc2ccc(Cl)cc2C)n1	3.5%
COc1ccc([N+](=O)[O-])cc1NC(=O)c1cc(-c2ccc(C)cc2)nc2ccccc12	i
CC(C)c1ccc(OCC(=O)Nc2ccc3c(c2)C(=O)N(CC2CCCO2)C3=O)cc1 (stereo not given)	i
CCOC(=O)c1cc(C)sc1NC(=O)c1ccc(OC)cc1	i
Cc1ccc(S(=O)(=O)NCCCNc2ccccc2[N+](=O)[O-])cc1	4.5%
O=C(CC1Sc2ccc(C(F)(F)F)cc2NC1=O)Nc1ccccc1[N+](=O)[O-] (stereo not given)	i
Cc1cc(C)cc(N(C(C)C(=O)NCCc2ccccc2)S(C)(=O)=O)c1 (stereo not given)	0.5%
O=C(Nc1ccc2c(c1)OCCO2)C1CCC1	i
O=C(N/N=C/c1ccccn1)c1n[nH]c2c1CCCC2	i
COc1cccc(S(=O)(=O)NCc2ccc(C(=O)Nc3ccc4sc(C)nc4c3)cc2)c1	2.1%
COC(=O)c1c(NC(=S)NCc2ccccn2)sc(C(=O)N(C)C)c1C	i

Grouped by structure, the compounds so far with a COOH group.
SMILES	Mtb growth
O=C(O)C1(NS(=O)(=O)c2ccc(F)c(Cl)c2)CCCCC1	i
Cc1ccc(-c2csc(Nc3ccc(C(=O)O)c(O)c3)n2)cc1	1.46µg/mL*
Cc1ccc(S(=O)(=O)N(CC(=O)O)c2ccc(Cl)c(C(F)(F)F)c2)cc1	i

The results go on.
SMILES	Mtb growth
O=C(CSc1nnc(-c2ccco2)o1)NC1CC2CCC1C2 (stereo not given)	i
Cc1cc(C)n(C(=O)c2ccc(C)c([N+](=O)[O-])c2)n1	0.6%
NC(=O)c1c(NC(=O)c2cc(Br)ccc2Cl)sc2c1CCC2	3.3%
O=C(Nc1ccccc1-c1ccccc1NC(=O)c1cccs1)c1cccs1	i
O=C(Oc1cccc(NC2=NS(=O)(=O)c3ccccc32)c1)C1CC(=O)N(c2ccc(Cl)cc2)C1 (stereo not given)	i
CCOC(=O)c1c(-c2ccccc2)oc2ccc(OC(=O)c3cccc([N+](=O)[O-])c3)cc12	i
CCOc1cc(C(N)=O)cc(Br)c1OCC	2.2%
CC(Sc1ccc(Cl)cc1)C(=O)Nc1ccccc1C(=O)NC(C)c1ccccc1 (stereo not given)	i
COc1ccc([N+](=O)[O-])cc1NC(=O)c1ccc(C)c(Cl)c1	0.2%
O=Cc1cccn1-c1cccc([N+](=O)[O-])c1	i
COc1ccc(NC(=O)c2ccc(C)cc2C)cc1OC	i
Cc1ccc(N2C(=O)CC(Sc3nnc(SCc4ccc(Cl)cc4)s3)C2=O)cc1C (stereo not given)	i
Cc1ccc2nc(NC(=O)CC(C)c3ccccc3)sc2c1 (stereo not given)	i
CC(C)c1ccc(OCc2nnc(SCC(=O)Nc3cc(C(F)(F)F)ccc3Cl)o2)cc1	0.4%
Cc1nn(CC(=O)NNC(=S)NCC2CCCO2)c(C)c1Br (stereo not given)	0.2%

Rewritten with bars between the fields: 3 of the compounds above.
SMILES | Mtb growth
O=C(Nc1ccccc1-c1ccccc1NC(=O)c1cccs1)c1cccs1 | i
O=C(Oc1cccc(NC2=NS(=O)(=O)c3ccccc32)c1)C1CC(=O)N(c2ccc(Cl)cc2)C1 (stereo not given) | i
CCOC(=O)c1c(-c2ccccc2)oc2ccc(OC(=O)c3cccc([N+](=O)[O-])c3)cc12 | i

Next part
SMILES	Mtb growth
O=C1c2ccccc2C(=O)N1CCSc1ncnc2sc(-c3ccccc3)cc12	i
CC(C)Cn1cnc2sc3c(c2c1=N)CCCC3	i
Cc1cccc(N2CCN(CC(=O)Nc3ccc(S(N)(=O)=O)cc3)CC2)c1C	i
O=C(NCc1ccc(N2CCCC2=O)cc1)NC1CCCCC1	1.9%
O=C(CSc1nnc2sc3ccccc3n12)N1N=CCC1c1ccccc1 (stereo not given)	i
Cc1oc2cc(OCC(N)=O)ccc2c(=O)c1-c1ccc(Br)cc1	i
S=C(NCCc1ccccc1)N1CCN(C(c2ccccc2)c2ccccc2)CC1	7.8%
Cc1ccc(S(=O)(=O)Nc2cccc(-c3csc(C)n3)c2)c(C)c1	i
Cc1[nH]c2ccccc2c(=O)c1CCC(=O)O	i
Cc1cc(NC(=O)C2CCCCC2C(=O)O)ccc1NC(=O)c1ccccc1 (stereo not given)	i
COc1ccccc1Cc1nc(-c2ccc(Cl)cc2)no1	2.2%
COc1ccc(-c2nn(C)c(=O)c3ccccc23)cc1CNC(=O)COc1cccc(C)c1	i
Cc1ccc(C(=O)NCC(=O)NCC(=O)O)cc1	i
COC(=O)C1=CN(Cc2ccc(OC)cc2)C=C(C(=O)OC)C1c1ccccc1OCc1ccccc1	i
COc1ccc(-c2cc(C(F)(F)F)c3c(N)c(C#N)sc3n2)c(OC)c1	2.7%
Cc1nnc(NC(=O)Cn2cnc3c2c(=O)n(C)c(=O)n3C)s1	i
Cc1ccc(C)c(NC(=O)CN(c2ccc(Br)cc2)S(C)(=O)=O)c1	i
O=C(Cc1cccc2ccccc12)Nc1ccc(-c2cc3ccccc3oc2=O)cc1	i
CC1CCN(C2(O)C(=O)Nc3ccc(Cl)cc32)CC1 (stereo not given)	i
Cc1ccc(S(=O)(=O)N(C)c2ccc(C(=O)Nc3ccc(F)cc3)cc2)cc1	i
Cc1ccc(-c2cc(C)nc3nc(N)nn23)cc1	i
CCc1cccc(C)c1NS(=O)(=O)Cc1ccccc1	i
Cc1ccc(C(=O)NCc2ccccc2)cc1S(=O)(=O)N1CCCCC1	i
CCSc1nc2ccccc2n1CCN(C)C	i
O=C(NNC(=S)NCCc1ccccc1)c1ccc(OC2CCCC2)cc1	i
O=C1C(=O)N(CC(=O)N2CCOCC2)c2ccccc21	i
CN(C)N(Cc1ccccc1)C(=O)C(O)(c1ccccc1)c1ccccc1	2.3%
C=CCn1c(=N)n(CC(O)COc2ccc(OC)cc2)c2ccccc21 (stereo not given)	2.5%
O=C(Nc1ccc(I)cc1C(=O)Nc1ccccc1Cl)c1ccco1	i
COc1ccc(NC(=O)CN2CCN(c3ccc(C)cc3C)CC2)cc1	0.2%

The closing 2 entries of the section above come first, to join the parts:
SMILES	Mtb growth
O=C(Nc1ccc(I)cc1C(=O)Nc1ccccc1Cl)c1ccco1	i
COc1ccc(NC(=O)CN2CCN(c3ccc(C)cc3C)CC2)cc1	0.2%
O=C(C1CCN(Cc2ccc(F)cc2)CC1)N1CCN(c2ccccc2F)CC1	i
CCN(CC)c1ccc(CNC(C)C(O)c2ccccc2)cc1 (stereo not given)	i
COc1ccc(C2=NCCc3cc(OC)c(OC)cc32)cc1OC	i
CC1CCN(c2ncnc(N)c2[N+](=O)[O-])CC1	i

Screening results deposited in PubChem by Southern Research Institute.
